# N370S GC – qHTS Assay for Inhibitors and Activators of N370S glucocerebrosidase as a Potential Chaperone Treatment of Gaucher Disease; N370S GC spleen homogenate, 4MU-glucoside fluorescence; hit rate 0.092% among 330,000; Potency, µM (series often up to 59.4 µM), inactives show at the top dose activity change, negative = inhibition, most hits filed as inhibitors; Lysosomal acid glucosylceramidase (Homo sapiens), P04062; AID 2101, 2009;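 note: 0% = full enzyme activity and -100% = no enzyme basal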
# TDP1 block – qHTS Assay for Inhibitors of Tyrosyl-DNA Phosphodiesterase (TDP1). Tyrosyl-DNA phosphodiesterase 1 (Homo sapiens), Q9NUW8. recombinant TDP1, AlphaScreen DNA substrate cleavage. Potency, µM (doses to about 130 µM), without a hit: top-dose activity change, negative = inhibition, most hits filed as inhibitors. hit rate 0.28% among 350,000; note: nearly all actives have a fitted effect of over 40% in size
# Target sequence (Q9NUW8 whole entry, looked up): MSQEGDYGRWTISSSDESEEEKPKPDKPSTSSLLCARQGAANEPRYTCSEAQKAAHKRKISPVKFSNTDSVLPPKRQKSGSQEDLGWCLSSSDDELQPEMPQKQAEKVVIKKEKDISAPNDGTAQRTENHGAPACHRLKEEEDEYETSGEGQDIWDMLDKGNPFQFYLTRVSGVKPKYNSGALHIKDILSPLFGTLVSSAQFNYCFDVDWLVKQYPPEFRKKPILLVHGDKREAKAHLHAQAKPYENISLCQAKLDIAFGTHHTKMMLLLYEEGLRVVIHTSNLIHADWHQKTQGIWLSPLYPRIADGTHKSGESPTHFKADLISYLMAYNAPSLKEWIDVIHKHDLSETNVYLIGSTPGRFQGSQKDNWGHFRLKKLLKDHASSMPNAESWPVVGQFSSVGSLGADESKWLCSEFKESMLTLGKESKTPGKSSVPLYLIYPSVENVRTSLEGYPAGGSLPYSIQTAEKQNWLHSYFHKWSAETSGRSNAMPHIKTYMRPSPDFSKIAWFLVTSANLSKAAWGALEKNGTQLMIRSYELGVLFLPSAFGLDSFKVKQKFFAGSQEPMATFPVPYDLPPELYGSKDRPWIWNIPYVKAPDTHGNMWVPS
#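 Recombinant human Tdp1 (E. coli-expressed, 1 nM final) preincubated with compounds 15 min at room temperature, then 5'-biotin/3'-phosphotyrosine-FITC DNA substrate (15 nM final) added for 5 min. AlphaScreen beads (10 ug/ml final) added 10 min; cleavage lowers signal.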
# * hit, by the source's call; ? = inconclusive; . = no result given; & = joins results of further samples; [ ] = dose if it differs, or a comment. Calls come from the whole dose curve; as a rule, active = well fitted curve in the direction sought with a large enough effect; inconclusive = small, poorly fitted or top-dose-only effect, or another doubt; inactive = no such curve, though single readings can be large; an effect the other way counts as inactive or inconclusive. Unless noted, % is set by controls: 0 for no effect and ±100 for the full control effect; potency is the fitted concentration of half-maximal effect. Not all compounds are listed, and most or all hits are left out here.
Compound | N370S GC | TDP1 block
CCN(CC)N=Nc1ccc(S(=O)(=O)Nc2nc(C)cc(C)n2)cc1 | 2%&-5% | 4%
COc1ccc(C(CNC(=O)COc2ccc(C)cc2)N2CCCCC2)cc1 (stereo unspecified) | . | 7%
CC1=NN(C(N)=S)C(=O)C1N=Nc1cccc(Cl)c1 (stereo unspecified) | -7% | .
Cc1cc(C)c2[nH]c(=O)c(C(c3nnnn3CC3CCCO3)N3CCCC(C)C3)cc2c1 (stereo unspecified) | 19% | -4%
CCc1cc(=O)oc2c(C)c(OC(C)C(=O)NCCCn3ccnc3)ccc12 (stereo unspecified) | -2% | 0%
COc1ccc(N2C(=O)CSC2c2ccc(F)c(F)c2)cc1 (stereo unspecified) | 1% | .
O=[N+]([O-])c1ccc(N2CCCC2)cc1N1CCCC1 | 24% | 7%
COc1ccc(CCNC(=O)CN2C(=O)NC3(CCc4ccccc43)C2=O)cc1 (stereo unspecified) | . | 0%
C/C(=N\NC(N)=S)C1C2C3CC4C5CC(C42)C1C53 (stereo unspecified) | 1% | 2%
NC(=O)N/N=C/c1ccc2cccc(OCc3ccccc3)c2n1 | -14% | .
COC(=O)c1oc2ccc(Br)cc2c1NC(=O)CCN1CCOCC1 | 13% | 3%
O=S(=O)(c1ccc(Cl)cc1)c1nc(-c2ccccc2F)oc1NCCCN1CCOCC1 | -2% | 9%
O=[N+]([O-])C1=C(Nc2cccc3ccccc23)CS(=O)(=O)C1 | -8% | 2%
CC1CCCCN1C(=O)CN1C(=O)CN(C)C(=O)c2ccccc21 (stereo unspecified) | 4% | -7%
CCOC(=O)N1CCC(NC(=O)c2cc(C(=O)NCC(OC)OC)ccc2CO)CC1 | 5% | -2%
O=C1CCC(C(=O)N(CCO)Cc2ccccc2)CN1CC1CCCCC1 (stereo unspecified) | 6% | 3%
CC(=O)c1ccc(NC(=O)COC(=O)c2ccccc2Nc2ccccc2)cc1 | 3% | 2%
Cc1cc(CNC(=O)CC2C(=O)NCCN2Cc2ccccc2C(F)(F)F)nn1C (stereo unspecified) | 14% | 4%
Cc1c(NS(=O)(=O)c2ccc(Br)s2)c(=O)n(-c2ccccc2)n1C | 2% | 3%
c1ccc2c(Nc3nc(N4CCOCC4)c4ccccc4n3)cccc2c1 | -3% | 0%
c1ccc2c(OCCCCN3CCOCC3)cccc2c1 | -3% | .
Cc1ccccc1-n1nnnc1SCC(C)C | -10% | 5%
CC(=O)Nc1ccc(-c2cc3ccccc3o2)cc1 | 5% | 7%
COc1ccc(C(CNC(=O)c2oc3c(Cl)cccc3c2C)N2CCCC2)cc1 (stereo unspecified) | -6% | .
O=C(CN1C(=O)C2CC=CCC2C1=O)NC1=NCCS1 (stereo unspecified) | -9% | 6%
COc1ccccc1OC(C)C(=O)O (stereo unspecified) | 4% | 3%
CCOC(=O)COc1ccc(S(=O)(=O)N2CCc3ccccc3C2)cc1 | 3% | 0%
COc1ccc(OC)c(NC(=O)COC(=O)[C@H](Cc2ccccc2)NC(=O)c2ccco2)c1 | . | 2%
COC(=O)c1ccc(NS(=O)(=O)c2ccc3c(c2)oc(=O)n3C)cc1 | -4% | 5%
N=c1sccn1CC(=O)Nc1ccc(Cl)cc1[N+](=O)[O-] | 7% | 5%
CC(C)(C)Nc1nc2nonc2nc1NC(C)(C)C | 7% | 4%
CCn1cc(C(=O)NCCCN2CCC(C)CC2)c2cc(OC)c(OC)cc2c1=O | 3% | 1%
Cc1cccc(Nc2ccc(C(=O)N3CCOCC3)cn2)c1 | 4% | 2%
O=C(CC1SC(=Nc2ccccc2)N(CCCCO)C1=O)NCc1ccccc1 (stereo unspecified) | 1% | 3%
CC(C)(C)C(=O)CN1CCN(C2c3ccccc3-c3ccccc32)CC1 | -11% | 5%
COc1cc(C(=O)Nc2ccc3nc4n(c(=O)c3c2)CCCC4)ccc1Br | -16% | .
COc1ccc(Cl)cc1C(=O)OCC(=O)N(C)CC(=O)Nc1ccc(F)cc1 | -1% | 7%[0.505 µM]
COc1cc(Cl)cc(/C=C/c2ccc3cccc(O)c3n2)c1OC | -2% | .
CCCc1ncc(C(O)c2cccc(OC)c2OC)n1C (stereo unspecified) | -8% | 3%
O=C(Nc1ccccc1)N1N=CCC1c1ccccc1 (stereo unspecified) | 7% | -5%
C=C1C2(C(=O)Nc3nccs3)CCC(C2)C1(C)C (stereo unspecified) | ? | 8%
COc1cccc(CNC(=O)COc2cccc(-n3cnnn3)c2)c1 | -9% | 1%
CCOc1ccc(N2C(=O)CC(N(CCc3ccc(S(N)(=O)=O)cc3)C(C)=O)C2=O)cc1 (stereo unspecified) | -5% | -3%
CCC1CCCCN1CCCNC(=O)C1CCCN(c2nn3c(=O)cc(C)nc3s2)C1 (stereo unspecified) | -5% | 0%
COc1ccc(CCNC(=S)N2CCN(S(=O)(=O)c3cccc(F)c3)CC2)cc1 | -3% | .
O=C(NCCn1ccc2ccccc21)c1cccc([N+](=O)[O-])c1 | 5% | 5%
CC(OC(=O)c1cccs1)C(=O)NCCc1ccccc1 (stereo unspecified) | -2% | 1%
CC(=O)N1CCN(c2ccccc2NC(=S)NC(=O)c2cc3ccccc3o2)CC1 | -3% | 3%
O=C(Cc1cc2ccccc2o1)NCc1ccc(F)cc1 | -6% | .
CC(C)[C@H](NC(=O)c1ccco1)C(=O)N(C)Cc1c(F)cccc1Cl | 0% | -7%

# 4 consecutive compounds from above, for reference:
Compound | N370S GC | TDP1 block
CC(OC(=O)c1cccs1)C(=O)NCCc1ccccc1 (stereo unspecified) | -2% | 1%
CC(=O)N1CCN(c2ccccc2NC(=S)NC(=O)c2cc3ccccc3o2)CC1 | -3% | 3%
O=C(Cc1cc2ccccc2o1)NCc1ccc(F)cc1 | -6% | .
CC(C)[C@H](NC(=O)c1ccco1)C(=O)N(C)Cc1c(F)cccc1Cl | 0% | -7%

# Next structures
Compound | N370S GC | TDP1 block
CC(=O)c1cccc(NC(=O)C2CCCN(S(=O)(=O)c3ccc(F)cc3)C2)c1 (stereo unspecified) | 2% | 5%
O=C(Nc1ccc(F)c(F)c1)C1CCN(S(=O)(=O)c2cccc3nonc23)CC1 | -4% | 3%
Cc1nc(-c2ccccc2)sc1-c1nc(-c2ccncc2)ncc1S(=O)(=O)c1ccccc1 | 7% | 6%
Cc1nc(S(=O)(=O)N(C)c2ccccc2)c(C#N)c(C)c1Cl | 13% | -4%
COCCN(C(=O)CNC(=O)c1ccco1)C(C(=O)NC1CCCCC1)c1cccc(OC)c1 (stereo unspecified) | -11% | -3%
CC(C)(C)c1ccc(C2C3=C(CCCC3=O)NC3=C2C(=O)c2ccccc23)cc1 (stereo unspecified) | 14% | 10%
CCC(=O)Nc1ccc(OC)cc1OC | 5% | 2%
CCN(CCCn1c(=S)[nH]c2ncccc2c1=O)c1ccccc1 | 6% | 0%
CN(CC(=O)NCCc1ccc(F)cc1)Cc1ccc(Br)cc1 | -9% | 6%[0.0935 µM]
O=C1CCCN1c1cccc(Br)c1 | 0% | 4%
CCCOC1CCCN(C(=O)c2ccc3oc(C(C)C)nc3c2)C1 (stereo unspecified) | -3% | 3%
CCOC(=O)c1ccc(N2C(=O)CC(N3CCC(O)(c4ccc(Cl)cc4)CC3)C2=O)cc1 (stereo unspecified) | -2% | 7%
CN(Cc1ccccc1)C(=O)c1ccc(S(=O)(=O)N(C)c2ccccc2)cc1 | . | -3%
CC(C)NC(=O)NC(=O)COC(=O)c1ccc(S(=O)(=O)NCc2ccco2)cc1 | . | -5%[56.1 µM]
Cc1nn(C)cc1CN(C)C(=O)c1cc(COc2ccc(F)cc2F)on1 | 8% | 4%
O=C(Nc1ccc(F)cc1)c1csc2c1CCCCC2 | . | -10%
COc1ccccc1CN1CC(C(=O)N(C)CCc2nc3ccc(F)cc3[nH]2)CCC1=O (stereo unspecified) | -9% | 2%
CCOC(=O)c1c(-c2ccc(OC)cc2)oc2ccc(OCC(N)=O)cc12 | -6% | .
CC(=O)NCC(=O)OCC(=O)Nc1ccc(C(C)=O)cc1 | 9% | -1%
O=C(Nc1ccccc1N1CCCC1)c1cccnc1Cl | 4% | -12%
CCSc1ncc(Cl)c(C(=O)Nc2sc3c(c2C(=O)NCc2cccnc2)CCCC3)n1 | 3% | 5%
COc1ccccc1NC(=O)NC(=O)N(C(C)C)S(C)(=O)=O | -16% | 5%
O=C(Nc1ccc(Cl)cc1Cl)c1ccc2c(=O)n3c(nc2c1)CCC3 | -6% | 1%
Cc1cc(N2C(=O)C(=O)/C(=C(/O)c3ccccc3)C2c2cccs2)no1 (stereo unspecified) | -2% | 4%
CCN(CC)Cc1c(C(=O)OC)nnn1-c1nonc1N | -1% | -5%

# Part of the list above, with values ahead of the structure.
N370S GC	TDP1 block	molecule
14%	10%	CC(C)(C)c1ccc(C2C3=C(CCCC3=O)NC3=C2C(=O)c2ccccc23)cc1 (stereo unspecified)
4%	-12%	O=C(Nc1ccccc1N1CCCC1)c1cccnc1Cl
9%	-1%	CC(=O)NCC(=O)OCC(=O)Nc1ccc(C(C)=O)cc1

# Going on with the list.
Compound | N370S GC | TDP1 block
COc1ccccc1NC(=O)c1ccc(NC(=O)COC(=O)C2(C)CC2(Cl)Cl)cc1 (stereo unspecified) | 6% | 3%
CCCNc1cc(C)oc(=O)c1C(=O)CCC | 30% | 3%
CCOc1ccc(CO/N=C/c2c(C)[nH]c(=O)[nH]c2=O)cc1 | -5% | 1%
O=C(CSc1nnc(CNC(=O)c2cccs2)o1)Nc1ccc(Cl)cc1 | 2% | 2%
COc1cccc(CN2CC(C(=O)NCc3ccc(C)o3)CCC2=O)c1 (stereo unspecified) | 7% | .
O=C(CSc1nc2ccccc2nc1N1CCCCC1)Nc1ccc(F)cc1 | 30% | .
CCOC(=O)C1=C(C)N(C)C(=S)NC1c1ccc(Cl)cc1 (stereo unspecified) | -7% | 7%
O=C1CC(SC(=NCc2ccc3c(c2)OCO3)Nc2ccccc2)C(=O)N1 (stereo unspecified) | -9% | -4%
COC(=O)c1[nH]c2cccc(C)c2c1NC(=O)CN1CCCc2ccccc21 | -7% | 4%
S=c1[nH]c2ccccc2o1 | 9% | 3%
Cc1ccc(-c2csc3ncnc(Nc4ccc(C(=O)O)cc4)c23)cc1 | -21% | .
CCOC(=O)CN(C(=O)Cn1nnc(-c2ccc(C)cc2)n1)C(CC)C(=O)NC1CCCC1 (stereo unspecified) | -11% | 4%
O=C(COc1ccc(Cl)cc1)N1CCCCC1 | 10% | -5%
Cc1ccc(NC(=O)N2CCCC2C(=O)Nc2ccc(-n3cnnn3)c(C)c2)cc1 (stereo unspecified) | 20% | 2%[56.1 µM]
COc1ccc(C(=O)NCCc2nnc3ccc(SCC(=O)N4CCOCC4)nn23)cc1 | -6% | 4%
Cc1[nH][nH]c(=O)c1N=Nc1ccccc1 | -4% | 5%
Cn1nc([N+](=O)[O-])nc1Sc1nnnn1-c1ccc(C(=O)O)cc1 | 8% | -6%
CCOC(Cn1c(SCc2cc(C(C)=O)ccc2OC)nc2ccccc2c1=O)OCC | -5% | 0%
FC(F)(F)c1cccc(-c2ccn3ncnc3n2)c1 | 0% | -5%
O=C(CNC(=O)c1ccccc1)N/N=C/c1ccc([N+](=O)[O-])o1 | -12% | 5%
CCCCc1[nH]nc2c1C1(C(=O)N(CC)c3ccccc31)C(C#N)=C(N)O2 (stereo unspecified) | -12% | -6%
Cc1ccc2oc(=O)n(CCC(=O)Nc3ccc(N4CCOCC4)cc3)c2c1 | -5% | 4%
CCN(CC)Cc1ccccc1Sc1ccccc1 | -16% | 5%
CCc1cc(C(=O)N2CCCC(C(=O)c3ccc(C(F)(F)F)cc3)C2)n(C)n1 (stereo unspecified) | 1% | .
COC(=O)c1cc2sc(Cl)cc2n1CC(=O)Nc1ccc(OC)c(OC)c1OC | 8% | 7%
Cc1ccccc1NC(=O)c1csc2c1CCCC2 | 5% | -3%
CSc1ccccc1C(=O)OCC(=O)N1CCCCCC1 | . | 0%
Cc1cccc(NC(=O)C2CCCN2C(=O)Oc2ccccc2)c1C (stereo unspecified) | 2% | 1%
O=C(O)c1ccc2c(c1)C(=O)N(CCC1=CCCCC1)C2=O | 2% | 1%
CCOC(=O)c1ccc(NC(=O)COc2ccc(S(=O)(=O)NC(C)(C)C)cc2)cc1 | -4% | -4%
COc1ccccc1CNC(=O)C1CCN(S(=O)(=O)c2c(C)noc2C)CC1 | -10% | 1%
Cc1ccc(O)c(-n2nc3ccccc3n2)c1 | -16% | 5%&-2%
COc1ccc(OC)c(CN(CCN2CCOCC2)C(=O)Nc2cccc(Cl)c2)c1 | -6% | 5%
O=C(CSc1n[nH]c(-c2ccco2)n1)Nc1ccccc1 | -6% | -13%
CCO/C=C/C(O)(CNC(=O)COc1ccccc1F)C(F)(F)F (stereo unspecified) | 1% | 4%
CS(=O)(=O)c1ccc(Cl)c(NC(=O)COC(=O)CNC(=O)c2sc3ccccc3c2Cl)c1 | -23% | 4%
C=CCn1c(SCC(=O)NC2CC2)nc2ccccc2c1=O | . | 0%
O=C(NCCS(=O)(=O)c1ccc(Br)cc1)c1ccccc1Cl | -15% | 2%
CCNC(=S)N/N=C/c1cccc(/C=N/NC(=S)NCC)c1 | 21% | -1%

# High-throughput results from PubChem.
